From PubChem
gsp antag = antagonizes gsp, the McCune-Albright syndrome mutation; actives 0.4% (n = 340,000); Potency, µM (top dose mostly 76.9 µM), for the others: at the top dose activity change, negative = inhibition, actives largely listed as inhibitors; AID 624288; gsp-mutant cells, cAMP HTRF, 30 min; control for the full effect not named in the record; active = falling curve of any shape with a large fitted effect; inconclusive = falling curve, mostly with a smaller effect; inactive = flat or rising curve; cell line not stated here;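 note: intracellular cAMP measured with PDE inhibitor Ro 20-1724 present during compound exposure; potency is the fitted concentration of half-maximal effect; % is set by controls: 0 for no effect and ±100 for the full control effect; nearly all actives have a fitted effect of over 65% in size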
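HTRF cAMP measurement after 30 min RT detection following 30 min, 37C compound treatment alongside […] (added as 300 uM solution) in G418-selected cells seeded at 2000/well and grown 16–24 h.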
gsp agonist = activates gsp, the McCune-Albright syndrome mutation; gsp mutant cells, cAMP HTRF, 30 min; control for the full effect not named in the record; Potency, µM (highest dose often 76.9 µM), for the others: at the top dose activation (cAMP increase), hits mostly activators; actives 0.13% (n = 340,000); AID 624287; active = well fitted activation curve with a large enough effect; inconclusive = small, poorly fitted or top-dose-only effect, or another doubt; inactive = no such curve, though single readings can be large or run the other way; cell line not stated here;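 note: phosphodiesterase inhibitor Ro 20-1724 added with compounds to block cAMP breakdown; potency is the fitted concentration of half-maximal effect; nearly all actives have a fitted effect of over 60% in size; about a fifth of the inactives were tested at one dose only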
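Cells in DMEM/10% FBS with G418 were pretreated with compounds in DMSO plus […] (300 uM stock) for 30 min at 37C. cAMP was measured by HTRF (cAMP-d2 plus anti-cAMP antibody-K) after 30 min at room temperature.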
D2 PAM = positive allosteric modulators of human D2 dopamine receptor; P14416; DiscoveRx D2 beta-arrestin cells, luminescence, 90 min; 100% = 57 uM dopamine signal; potentiation, % (test concentration not listed); actives 0.23% (n = 360,000); active = potentiation of 50% or more; inconclusive = 30% to 50%; inactive = 30% or less;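 note: compound concentration not given in the record; tested on top of an EC20 dose of dopamine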
Target sequence (P14416 whole entry, looked up): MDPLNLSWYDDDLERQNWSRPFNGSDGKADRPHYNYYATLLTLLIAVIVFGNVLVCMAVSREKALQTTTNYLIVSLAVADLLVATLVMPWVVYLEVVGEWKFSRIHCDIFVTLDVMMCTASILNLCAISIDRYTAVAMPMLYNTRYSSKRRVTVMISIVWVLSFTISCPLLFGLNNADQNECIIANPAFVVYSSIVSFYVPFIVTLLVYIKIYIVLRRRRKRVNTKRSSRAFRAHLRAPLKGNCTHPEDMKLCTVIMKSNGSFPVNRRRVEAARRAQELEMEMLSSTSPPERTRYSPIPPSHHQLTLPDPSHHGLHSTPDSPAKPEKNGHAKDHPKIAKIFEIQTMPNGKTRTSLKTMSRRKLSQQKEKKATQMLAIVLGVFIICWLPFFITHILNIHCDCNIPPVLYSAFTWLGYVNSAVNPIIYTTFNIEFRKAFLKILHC
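PathHunter D2 cells, attached overnight at 37 deg C, received compound in DMSO plus dopamine at EC20 (50 nM final) for 90 min at 37 deg C. Beta-arrestin recruitment was read as luminescence after 1 h with detection reagent at ambient temperature.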
CtBP-E1A inh = CtBP/E1A binding inhibition; AlphaScreen GST-E1A/His-CtBP binding, 1536-well; hits give low values; control for the full effect not named in the record; activity change, % (test concentration not listed); actives 0.49% (n = 340,000); in the data active means activity change below about -65%; inconclusive means about -30% to -65%; inactive means above about -30%; note: % is set by controls: 0 for no effect and ±100 for the full control effect; compound concentration not given in the record
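Homogeneous bead-based format: GST-tagged E1A captured on glutathione donor beads, His-tagged CtBP on nickel acceptor beads; compounds precede bead addition by 2 h at 37 °C.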
D2 agonist = activates the human D2 dopamine receptor; DiscoveRx PathHunter D2 beta-arrestin, luminescence, 90 min; 100% = 57 uM dopamine signal; actives 0.084% (n = 360,000); activation, % (test concentration not listed); in the data active = activation above about 40%; inconclusive = about 15% to 40%; inactive = below about 15%; note: compound concentration not given in the record; the text of the record calls up to 30% inactive
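DiscoveRx PathHunter D2 beta-arrestin cells (2,100/well) attached overnight, then compound-stimulated 90 min at 37 C in HBSS/10 mM HEPES/0.1% Tween-20 buffer; beta-galactosidase complementation read by luminescence after 1 h at ambient temperature. Dopamine 57 uM final (EC100) as control.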
Six1-Eya2 inh = Six1/Eya2 interaction inhibition. actives 0.56% (n = 360,000). activity change, % (test concentration not listed). Q15475+O00167. AlphaScreen GST-Six1/His-Eya2 binding, biochemical; hits give low values; control for the full effect not named in the record. AID 651725; in the data active = activity change below about -65%; inconclusive = about -30% to -65%; inactive = above about -30%; note: % is set by controls: 0 for no effect and ±100 for the full control effect; compound concentration not given in the record
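Six1/Eya2 binding was read as AlphaScreen signal after compounds were pinned into GST-Six1 plus His-tagged Eya2 (5X stock 250/500 nM) in pH 8.0 Tris/NaCl/TCEP buffer, beads added, then incubated 1 h, 37 C, dark.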
Numbers without * were called inactive; ? = inconclusive; · = no result given; & = joins results of further samples; [ ] = remark or other dose.

| SMILES | gsp antag | gsp agonist | D2 PAM | CtBP-E1A inh | D2 agonist | Six1-Eya2 inh |
| --- | --- | --- | --- | --- | --- | --- |
| CN(C)CCC(c1ccc(Cl)cc1)c1ccccn1 (configuration not stated) | 12%&9% | · | -10&-17 | 0&6 | -4.5&-1.5 | 3&-1 |
| COc1cc2nc(N3CCN(c4cc(C)ccc4C)CC3)nc(N)c2cc1OC | 5% | -8%[15.4 µM] | -15 | -13 | 4.6 | 1 |
| NNC(=O)c1cc2cc3ccccc3nc2s1 | -12% | 9% | -3 | · | 10 | -2 |
| S=C1NCCOCCNC(=S)NCCOCCOCCN1 | 3% | -9% | -5 | · | 0.8 | 1 |
| CCCc1cc(N2CCCC(C(=O)Nc3c(OC)cccc3OC)C2)n2ncnc2n1 (configuration not stated) | -3% | -20% | -7 | -1 | 0.6 | 1 |
| COC(=O)c1ccc(CSc2nccn2C)cc1 | 12% | 2% | 4 | 4 | 0.7 | 6 |
| O=C(NCc1ccc(Cl)c(Cl)c1)c1ccco1 | 6% | 26% | -21 | 0 | -4.2 | 0 |
| C=CCn1c(SCC(=O)Nc2sc3c(c2C#N)CCC(C)C3)nc2cc(C(=O)O)ccc2c1=O (configuration not stated) | -3% | -26% | -3 | -14 | 0.8 | -18 |
| c1ccc(Nc2n[nH]nc2-c2ccccc2)cc1 | -21% | -1% | -1 | 1 | -1.8 | 2 |
| [O-][n+]1c2ccccc2c2n1CCN1CCOC21c1ccc(Cl)cc1 (configuration not stated) | 3% | 29% | -4 | -4 | -0.1 | 5 |
| Cc1cc([N+](=O)[O-])ccc1NC(=O)CN1CCN(Cc2ccccc2)CC1 | ? | 27% | -3 | -10 | -3.9 | -7 |
| Cc1cc(-c2n[nH]c(=S)n2-c2ccccc2)nn1C | -1% | 18% | -21 | 0 | -2.2 | -1 |
| O=C(c1cc(S(=O)(=O)N2CCN(c3ccccc3)CC2)ccc1Cl)N1CCCCCCC1 | ? | 4%[15.4 µM] | -6 | -7 | 1.6 | -5 |
| Cc1cc(=O)[nH]c(N2CCOCC2)n1 | 8% | 7%[15.4 µM] | 0 | 0 | -3.7 | 10 |
| CC1Cc2ccccc2N1C(=O)CSc1nnnn1-c1ccc2c(c1)OCCO2 (configuration not stated) | -7% | -34% | 7 | -6 | 1.5 | -8 |
| O=C(NNC(=O)C1CCCCC1)C(=O)NC1CCCCC1 | 0% | 1% | -21 | 5 | -0.9 | 3 |
| CCOc1ccccc1NC(=O)CSc1nc2nc(-c3cccs3)cc(C(F)(F)F)c2c(=O)[nH]1 | -11% | ? | -16 | -11 | -1.9 | -7 |
| C/C(=N/NC(=O)c1ccoc1C)c1ccc(N2CCOCC2)cc1 | 4% | -19%[15.4 µM] | -11 | 0 | -5.5 | 0 |
| COc1ccc(NC(=O)CN(c2cccc(C(F)(F)F)c2)S(C)(=O)=O)cc1OC | 3% | 0% | 25 | 2 | 2.0 | 0 |
| Cc1ccc(-c2nc3ncccc3o2)cc1NC(=O)c1ccc2c(c1)OCO2 | -18% | -8%[15.4 µM] | -8 | -1 | -0.5 | -7 |
| O=C(Nc1ccccc1N1CCCCC1)c1ncoc1-c1ccc(F)cc1 | -3% | -14% | -7 | 5 | -3.6 | 7 |
| Cc1ccc(-c2csc(C(C#N)=C(O)CN3CCN(C(=O)c4ccco4)CC3)n2)cc1 | ? | 6% | -1 | -8 | 9.9 | -28 |
| Fc1cccc(Cc2c(-c3ccc(Cl)cc3)nc3c(Cl)cc(C(F)(F)F)cn23)c1 | · | · | -10 | -2 | -5.3 | 0 |
| O=C(CN1C(=O)NC2(CCCC2)C1=O)OCc1cc(=O)n2cc(Br)ccc2n1 | -8% | ? | -4 | 1 | 2.2 | -2 |
| CCN(C(=O)CSc1nnc(SC(C)C)s1)C1CCS(=O)(=O)C1 (configuration not stated) | 9% | 9% | 1 | · | -1.7 | 0 |

Part of the list above, showing only gsp antag, CtBP-E1A inh and D2 PAM:
Structure | gsp antag | CtBP-E1A inh | D2 PAM
CCN(C(=O)CSc1nnc(SC(C)C)s1)C1CCS(=O)(=O)C1 (configuration not stated) | 9% | · | 1
c1ccc(Nc2n[nH]nc2-c2ccccc2)cc1 | -21% | 1 | -1

Additional entries
| SMILES | gsp antag | gsp agonist | D2 PAM | CtBP-E1A inh | D2 agonist | Six1-Eya2 inh |
| --- | --- | --- | --- | --- | --- | --- |
| Cc1cccc(CN(CC(=O)N/N=C/c2ccco2)S(=O)(=O)c2ccc(Cl)cc2)c1 | -20% | -15% | -6 | -19 | -4.8 | 0 |
| CC1CCC(CN2C(Nc3ccccc3)=NC[C@@H]2Cc2ccccc2)CC1 (some centres not stated) | -2% | -4% | -19 | -6 | -1.4 | 9 |
| CCOC(=O)C1CCCN(CCC(=O)Nc2ccc3c(c2)CCC3)C1 (configuration not stated) | -2% | 7% | -25 | 1 | 1.8 | 3 |
| CCc1ccc(C(O)c2ncc(-c3ccc4ccccc4c3)[nH]2)cc1 (configuration not stated) | · | · | -11 | -8 | -5.8 | -22 |
| COCCCNC(=O)C1c2ccccc2Oc2ccccc21 | 8% | ? | -9 | · | -4.8 | 3 |
| COc1ccc(N(CC(=O)Nc2ccccc2C(=O)NCc2ccco2)S(C)(=O)=O)cc1 | 12% | -24% | -10 | -5 | -0.9 | -3 |
| C=CCSC1=N/C(=C\c2cc(OC)c3c(c2)OCO3)C(=O)S1 | -10% | 10% | -13 | 4 | -1.5 | 3 |
| Clc1cc(Cl)cc(Nc2ccccc2CN(C/C=C/c2ccc3c(c2)OCO3)Cc2ccccc2)c1 | · | ? | 4 | -13 | -8.8 | -9 |
| CC[C@@H]1C=C(C(=O)O)[C@H](c2ccc(F)cc2)N1S(=O)(=O)c1ccc(C)cc1 | ? | · | · | -5 | -3.0 | 2 |
| Cc1cccc(NC(NC(=O)c2cccnc2)C(Cl)(Cl)Cl)c1 (configuration not stated) | -6% | -37%[inhibitor] | 3 | 0 | -1.9 | 9 |
| CCCCn1nnnc1SCC(=O)Nc1ccc2c(c1)OCO2 | 1% | -10% | -28 | -1 | -4.5 | -7 |
| CC1CCCCC1NC(=O)CCS(=O)(=O)c1cc2c(cc1Cl)NC(=O)CO2 (configuration not stated) | -8% | -19% | -1 | -1 | -3.5 | 0 |
| C[C@]12CC(O)C3C(CCC4=CC(=O)CC[C@@]43C)C1CCC2c1csc(-c2ccccc2)n1 (some centres not stated) | 0% | -7% | -11 | · | -6.8 | 7 |
| CC1CC(C)(C)CC(=O)C1C(=O)c1ccccc1 (configuration not stated) | 4% | · | -3 | 7 | -2.1 | 5 |
| Cc1nc(NC(=O)c2cc3ccccc3o2)ccc1Br | 4% | 15% | -19 | 0 | -3.5 | 15 |
| O=C(COc1ccc(F)cc1Br)NCC1COc2ccccc2O1 (configuration not stated) | 8% | ? | -1 | 9 | -1.6 | 7 |
| CC(OC(=O)Cc1n[nH]c(=O)c2ccccc12)C(=O)Nc1ccc(F)cc1Cl (configuration not stated) | -4% | 7%[15.4 µM] | -13 | 8 | -6.2 | 4 |
| Nc1nc(SCC(=O)c2ccc(Cl)cc2)c2ncn(C3OC(CO)C(O)C3O)c2n1 (configuration not stated) | 15% | 1%[15.4 µM] | -13 | 2 | 0.0 | -3 |
| COC(=O)c1ccc(OCC(O)CN2C(=O)c3ccccc3S2(=O)=O)cc1 (configuration not stated) | -13% | -29%[15.4 µM] | 8 | -26 | -0.9 | -1 |
| COc1ccc(C2CC(c3ccc(Cl)cc3)=NN2C(=O)c2cccc([N+](=O)[O-])c2)cc1 (configuration not stated) | -3% | -15% | -8 | -20 | -3.3 | -11 |
| Cc1cn(CC(=O)NCc2ccc3c(c2)OCO3)c(=O)[nH]c1=O | 9% | · | · | 3 | -4.0 | 3 |
| O=[N+]([O-])c1ccc(Nc2nc(NC3CCCCC3)nc(N3CCCC3)n2)cc1 | -19% | 4% | 8 | -2 | 5.9 | -9 |
| COc1ccc(C2=NN(c3nc(C(=O)O)cs3)C(O)(C(F)(F)F)C2)c(OC)c1 (configuration not stated) | -16% | -8%[15.4 µM] | -2 | 2 | -2.3 | -6 |
| CC1(C)CC(/C=C/c2ccccc2)=Nc2ccccc2N1 | 1% | 36% | -11 | ? | -7.6 | ? |
| CCOc1ccc(C(=O)C(C)OC(=O)CN2C(=O)NC(C)(C)C2=O)cc1 (configuration not stated) | 1% | -4% | -10 | 6 | 0.3 | 8 |

Some of the entries above in another layout.
Nc1nc(SCC(=O)c2ccc(Cl)cc2)c2ncn(C3OC(CO)C(O)C3O)c2n1 (configuration not stated)
  gsp antag: 15%	gsp agonist: 1%[15.4 µM]	D2 PAM: -13	CtBP-E1A inh: 2	D2 agonist: 0.0	Six1-Eya2 inh: -3

O=C(COc1ccc(F)cc1Br)NCC1COc2ccccc2O1 (configuration not stated)
  gsp antag: 8%	gsp agonist: ?	D2 PAM: -1	CtBP-E1A inh: 9	D2 agonist: -1.6	Six1-Eya2 inh: 7

COc1ccc(C2CC(c3ccc(Cl)cc3)=NN2C(=O)c2cccc([N+](=O)[O-])c2)cc1 (configuration not stated)
  gsp antag: -3%	gsp agonist: -15%	D2 PAM: -8	CtBP-E1A inh: -20	D2 agonist: -3.3	Six1-Eya2 inh: -11

(further entries)
| SMILES | gsp antag | gsp agonist | D2 PAM | CtBP-E1A inh | D2 agonist | Six1-Eya2 inh |
| --- | --- | --- | --- | --- | --- | --- |
| Cc1cc(C)c(N2C(=O)CC(Sc3ccccc3N)C2=O)c(C)c1 (configuration not stated) | · | -54%[inhibitor] | -37 | 30 | -13 | -10 |
| O=C(Nc1nc(-c2ccc(Br)cc2)cs1)c1cccnc1 | -7% | 5%[15.4 µM] | 2 | 26 | -3.7 | 18 |
| O=C1N(CN2C(=O)C3(OCCO3)c3ccccc32)c2ccccc2C12OCCO2 | -1% | 1% | 2 | -1 | -3.3 | -8 |
| CN(C)S(=O)(=O)N(CC(=O)NCc1ccccc1)c1ccccc1 | -2% | -9% | -5 | -2 | -0.8 | 6 |
| O=C(CSc1nc(O)cc(=O)[nH]1)N1CCCc2ccccc21 | 5% | -4%[15.4 µM] | -1 | -19 | 1.2 | 3 |
| CN(C)CCn1c2c(c(SCC(=O)Nc3nccs3)nc1=O)CCCC2 | 2% | 11% | -32 | 2 | -5.0 | 0 |
| COc1ccc(N(CC(=O)Nc2cccc(SC)c2)S(C)(=O)=O)cc1Cl | 4% | 6% | -11 | 3 | -0.2 | 0 |
| COC(=O)CCC(=O)Nc1ccc(S(=O)(=O)N2CCc3ccccc32)cc1 | -4% | -9%[15.4 µM] | -15 | 4 | -0.2 | 3 |
| COc1ccccc1S(=O)Cc1ccc(C(=O)NC2CCCC2)o1 (configuration not stated) | -1% | -10% | -7 | 2 | -2.7 | -3 |
| CC(=O)Nc1ccc(S(=O)(=O)N2CCSc3ccccc32)cc1 | -2% | -9%[15.4 µM] | -33 | -10 | -2.3 | 3 |
| CN1C[C@@H]2C(c3ccc(Cl)nc3)C3(c4ccccc4)CC2(C3)[C@H]1c1ccccc1 (some centres not stated) | -4% | · | -14 | -14 | -2.5 | -20 |
| O=C(CSc1nnc(COc2ccc(Br)cc2)o1)NC1CCCCC1 | 16% | -9%[15.4 µM] | -3 | -8 | -0.1 | -8 |
